Ran importin = inhibitors of Ran–importin-beta complex formation, primary screen, biochemical, CFP-Ran/YFP-importin-beta FRET, RCC1, cell-free (AID 434961); CFP-Ran/YFP-importin-beta FRET, cell-free; hits give high values; 7,700 compounds, 0.2% hits; inhibition, %; Regulator of chromosome condensation (Homo sapiens) + GTP-binding nuclear protein Ran …;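 active = more than half of the replicate wells above 15% inhibition; inconclusive = exactly half above it; inactive = fewer than half above it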;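 note: 0% = DMSO wells and 100% inhibition = RanGDP control wells on each plate; stock of unstated strength diluted about 400-fold; mean of two wells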
Active calls of the source: *; ? = inconclusive.

Ran importin | SMILES
9.8 | C[C@@H]1CN([C@@H](C)CO)C(=O)Cc2cc(NC(=O)CCC(F)(F)F)ccc2O[C@@H]1CN(C)S(=O)(=O)c1ccccc1
-0.4 | C[C@@H]1CN([C@@H](C)CO)C(=O)CCCn2cc(nn2)CO[C@@H]1CN(C)S(=O)(=O)c1cn(C)cn1
4.0 | C[C@@H]1CN([C@@H](C)CO)C(=O)CCCn2cc(nn2)CO[C@H]1CN(C)C(=O)C1CC1
0.6 | Cc1noc(C)c1NC(=O)N(C)C[C@H]1Oc2ccc(NC(=O)Cc3ccccc3)cc2C(=O)N([C@@H](C)CO)C[C@@H]1C
2.5 | Cc1noc(C)c1S(=O)(=O)Nc1ccc2c(c1)C(=O)N([C@H](C)CO)C[C@@H](C)[C@@H](CN(C)C(=O)Cc1ccccc1)OCCCC[C@H](C)O2
-8.3 | Cc1noc(C)c1S(=O)(=O)Nc1cccc2c1O[C@@H](CN(C)Cc1ccc(Oc3ccccc3)cc1)[C@@H](C)CN([C@@H](C)CO)C2=O
-2.7 | C[C@@H]1CN([C@H](C)CO)C(=O)c2cccc(NC(=O)c3nc4ccccc4s3)c2O[C@@H]1CN(C)S(=O)(=O)c1cccs1
0.9 | C[C@H]1CCCCO[C@H](CN(C)C(=O)CCC(F)(F)F)[C@@H](C)CN([C@@H](C)CO)C(=O)c2cc(NS(C)(=O)=O)ccc2O1
5.7 | C[C@H]1CN([C@@H](C)CO)C(=O)c2cccc(NC(=O)C3CCOCC3)c2O[C@H]1CN(C)Cc1ccc(Oc2ccccc2)cc1
5.2 | C[C@H]1CN([C@@H](C)CO)C(=O)Cc2cc(NC(=O)Nc3ccc4c(c3)OCO4)ccc2O[C@@H]1CN(C)C(=O)NC1CCCCC1
2.0 | C[C@H]1CN([C@@H](C)CO)C(=O)CCCn2cc(nn2)CO[C@H]1CN(C)S(=O)(=O)c1ccc2c(c1)OCCCO2
1.1 | CNC[C@@H]1Oc2ccc(NC(=O)Nc3ccc4c(c3)OCO4)cc2C(=O)N([C@H](C)CO)C[C@H]1C

Four records drawn at random from those above, as already listed:
Ran importin | SMILES
5.2 | C[C@H]1CN([C@@H](C)CO)C(=O)Cc2cc(NC(=O)Nc3ccc4c(c3)OCO4)ccc2O[C@@H]1CN(C)C(=O)NC1CCCCC1
0.9 | C[C@H]1CCCCO[C@H](CN(C)C(=O)CCC(F)(F)F)[C@@H](C)CN([C@@H](C)CO)C(=O)c2cc(NS(C)(=O)=O)ccc2O1
0.6 | Cc1noc(C)c1NC(=O)N(C)C[C@H]1Oc2ccc(NC(=O)Cc3ccccc3)cc2C(=O)N([C@@H](C)CO)C[C@@H]1C
9.8 | C[C@@H]1CN([C@@H](C)CO)C(=O)Cc2cc(NC(=O)CCC(F)(F)F)ccc2O[C@@H]1CN(C)S(=O)(=O)c1ccccc1

Back to the main list with the 4 entries that preceded the break.
Ran importin | SMILES
5.7 | C[C@H]1CN([C@@H](C)CO)C(=O)c2cccc(NC(=O)C3CCOCC3)c2O[C@H]1CN(C)Cc1ccc(Oc2ccccc2)cc1
5.2 | C[C@H]1CN([C@@H](C)CO)C(=O)Cc2cc(NC(=O)Nc3ccc4c(c3)OCO4)ccc2O[C@@H]1CN(C)C(=O)NC1CCCCC1
2.0 | C[C@H]1CN([C@@H](C)CO)C(=O)CCCn2cc(nn2)CO[C@H]1CN(C)S(=O)(=O)c1ccc2c(c1)OCCCO2
1.1 | CNC[C@@H]1Oc2ccc(NC(=O)Nc3ccc4c(c3)OCO4)cc2C(=O)N([C@H](C)CO)C[C@H]1C
-3.7 | C[C@H](CO)N1C[C@H](C)[C@@H](CN(C)S(=O)(=O)c2cccs2)Oc2ccc(N(C)C)cc2CC1=O
0.6 | COc1ccc(CN(C)C[C@@H]2OCCCC[C@H](C)Oc3ccc(NC(=O)Nc4c(C)noc4C)cc3C(=O)N([C@H](C)CO)C[C@H]2C)cc1
? | C[C@H](CO)N1C[C@H](C)[C@@H](CN(C)C(=O)Nc2ccccc2)Oc2ccc(NS(=O)(=O)c3ccccc3)cc2CC1=O
6.7 | CNC[C@@H]1Oc2ccc(N)cc2C(=O)N([C@H](C)CO)C[C@H]1C
3.9 | C[C@H]1CN([C@@H](C)CO)C(=O)c2cccc(NC(=O)Nc3ccc4c(c3)OCO4)c2O[C@@H]1CN(C)C(=O)NC1CCCCC1
0.1 | Cc1noc(C)c1NC(=O)N(C)C[C@H]1Oc2ccc(NC(=O)Nc3ccc(F)cc3)cc2C(=O)N([C@@H](C)CO)C[C@H]1C
-1.2 | C[C@H]1CN([C@@H](C)CO)C(=O)c2cccc(NC(=O)NC3CCCCC3)c2O[C@H]1CN(C)C(=O)Nc1cccc2ccccc12
2.4 | C[C@H](CO)N1C[C@H](C)[C@@H](CN(C)C(=O)NC2CCCCC2)Oc2ccc(NS(=O)(=O)c3ccc(Cl)cc3)cc2CC1=O
2.7 | C[C@@H]1CN([C@H](C)CO)C(=O)Cc2cc(NS(C)(=O)=O)ccc2O[C@@H]1CN(C)C
-4.7 | CC(C)NC(=O)Nc1ccc2c(c1)C(=O)N([C@@H](C)CO)C[C@H](C)[C@H](CN(C)C)OCCCC[C@@H](C)O2
0.6 | C[C@H]1CN([C@@H](C)CO)C(=O)c2cc(NC(=O)C3CC3)ccc2O[C@@H]1CN(C)C(=O)Nc1cccc2ccccc12
-1.0 | C[C@H]1CN([C@@H](C)CO)C(=O)Cc2cc(NC(=O)Nc3ccc4c(c3)OCO4)ccc2O[C@@H]1CN(C)C(=O)Nc1ccc2c(c1)OCO2

(cont.)
Ran importin | SMILES
-1.5 | C[C@@H]1CCCCO[C@H](CN(C)C(=O)c2ccccc2)[C@H](C)CN([C@@H](C)CO)C(=O)c2cc(NC(=O)Nc3ccc4c(c3)OCO4)ccc2O1
-3.3 | C[C@@H]1CCCCO[C@H](CN(C)S(=O)(=O)c2ccccc2)[C@@H](C)CN([C@H](C)CO)C(=O)c2cc(NC(=O)Nc3ccccc3)ccc2O1
-3.5 | C[C@H]1CN([C@@H](C)CO)C(=O)c2cccc(NS(C)(=O)=O)c2O[C@H]1CN(C)C
2.4 | COc1ccc(S(=O)(=O)N(C)C[C@H]2Oc3c(NC(=O)c4ccncc4)cccc3C(=O)N([C@@H](C)CO)C[C@H]2C)cc1
1.3 | C[C@@H]1CN([C@H](C)CO)C(=O)c2cc(NS(=O)(=O)c3cccs3)ccc2O[C@@H](C)CCCCO[C@@H]1CN(C)C(=O)C1CCCCC1
3.4 | CC(C)NC(=O)Nc1ccc2c(c1)C(=O)N([C@@H](C)CO)C[C@H](C)[C@H](CN(C)C(=O)c1ccncc1)OCCCC[C@@H](C)O2
-2.9 | COc1ccc(NC(=O)Nc2ccc3c(c2)C(=O)N([C@@H](C)CO)C[C@@H](C)[C@@H](CN(C)Cc2ccc(C(=O)O)cc2)O3)cc1
7.1 | CCCN(C)C[C@@H]1Oc2ncc(C#Cc3ccc(OC)c(OC)c3)cc2C(=O)N([C@H](C)CO)C[C@@H]1C
1.6 | CC(C)NC(=O)N(C)C[C@@H]1OCc2cnnn2CCCC(=O)N([C@H](C)CO)C[C@@H]1C
2.9 | C[C@H]1CN([C@@H](C)CO)C(=O)c2cc(N(C)C)ccc2O[C@@H]1CN(C)Cc1ccncc1
0.8 | COc1ccc(CN(C)C[C@@H]2Oc3c(NC(=O)Nc4c(C)noc4C)cccc3C(=O)N([C@H](C)CO)C[C@@H]2C)cc1
-5.2 | COc1ccc(S(=O)(=O)N(C)C[C@@H]2Oc3ccc(NC(=O)CCN4CCOCC4)cc3C(=O)N([C@H](C)CO)C[C@H]2C)cc1

More records follow:
Ran importin | SMILES
-2.3 | CCCC(O)C#Cc1cnc2c(c1)C(=O)N([C@H](C)CO)C[C@H](C)[C@H](CN(C)S(=O)(=O)c1cccs1)O2 (stereo partly drawn)
0.1 | CC(C)NC(=O)N(C)C[C@@H]1OCCCC[C@H](C)Oc2ccc(NC(=O)Nc3ccc(C(F)(F)F)cc3)cc2C(=O)N([C@@H](C)CO)C[C@H]1C
21* | C[C@@H]1CN([C@@H](C)CO)C(=O)c2cc(NS(C)(=O)=O)ccc2O[C@@H](C)CCCCO[C@H]1CN(C)C(=O)Cc1ccccc1
-1.9 | C[C@@H]1CN([C@H](C)CO)C(=O)c2cc(NC(=O)Nc3ccccc3)ccc2O[C@@H](C)CCCCO[C@@H]1CN(C)C(=O)Cc1ccccc1
3.0 | COc1ccc(S(=O)(=O)N(C)C[C@@H]2Oc3ccc(NC(=O)Cn4cnnn4)cc3C(=O)N([C@@H](C)CO)C[C@@H]2C)cc1
-13 | COc1ccc(S(=O)(=O)Nc2cccc3c2O[C@H](CN(C)C)[C@@H](C)CN([C@H](C)CO)C3=O)cc1
-8.1 | C[C@H](CO)N1C[C@H](C)[C@H](CN(C)S(=O)(=O)c2cn(C)cn2)OCCCC[C@H](C)Oc2ccc(NS(=O)(=O)c3cn(C)cn3)cc2C1=O
1.0 | CNC[C@H]1Oc2ccc(NS(=O)(=O)c3cccs3)cc2CC(=O)N([C@@H](C)CO)C[C@H]1C
-0.3 | CNC[C@H]1Oc2c(NC(=O)NC3CCCCC3)cccc2C(=O)N([C@H](C)CO)C[C@@H]1C
-0.6 | Cc1noc(C)c1S(=O)(=O)N(C)C[C@H]1Oc2ccc(NC(=O)Cc3ccccc3)cc2CC(=O)N([C@@H](C)CO)C[C@H]1C
0.9 | C[C@@H]1CCCCO[C@@H](CN(C)Cc2ccc3c(c2)OCO3)[C@H](C)CN([C@@H](C)CO)C(=O)c2cc(NS(=O)(=O)c3ccccc3)ccc2O1
-0.1 | C[C@H](CO)N1C[C@H](C)[C@H](CN(C)C(=O)c2ccc3ccn(C)c3c2)OCc2cn(nn2)CCCC1=O

New compounds follow.
Ran importin | SMILES
0.5 | Cc1noc(C)c1S(=O)(=O)Nc1ccc2c(c1)CC(=O)N([C@@H](C)CO)C[C@@H](C)[C@H](CN(C)S(=O)(=O)c1ccccc1)O2
6.8 | C[C@@H]1CN([C@@H](C)CO)C(=O)Cc2cc(NS(=O)(=O)c3ccccc3)ccc2O[C@@H]1CN(C)C(=O)NC1CCCCC1
-5.7 | C[C@H]1CN([C@@H](C)CO)C(=O)c2cccc(NC(=O)C3CCOCC3)c2O[C@@H]1CN(C)Cc1ccc(C(F)(F)F)cc1
-5.0 | COc1ccc(NC(=O)Nc2cccc3c2O[C@H](CN(C)S(=O)(=O)c2ccc(Cl)cc2)[C@@H](C)CN([C@@H](C)CO)C3=O)cc1
2.2 | C[C@@H]1CN([C@H](C)CO)C(=O)Cc2cc(NS(=O)(=O)c3ccccc3)ccc2O[C@@H]1CN(C)C(=O)Nc1ccc2c(c1)OCO2
3.0 | C[C@@H]1CN([C@H](C)CO)C(=O)Cc2cc(NC(=O)Nc3ccc(C(F)(F)F)cc3)ccc2O[C@H]1CN(C)Cc1ccncc1
1.1 | Cc1noc(C)c1S(=O)(=O)Nc1ccc2c(c1)C(=O)N([C@@H](C)CO)C[C@H](C)[C@@H](CN(C)C)OCCCC[C@H](C)O2
-2.0 | C[C@@H]1CN([C@@H](C)CO)C(=O)CCCn2cc(nn2)CO[C@@H]1CN(C)C(=O)Nc1ccc(N2CCCCC2)cc1
-3.4 | Cc1noc(C)c1NC(=O)N(C)C[C@H]1OCCCC[C@H](C)Oc2ccc(NC(=O)CCC(F)(F)F)cc2C(=O)N([C@@H](C)CO)C[C@H]1C
-1.6 | C[C@@H]1CN([C@@H](C)CO)C(=O)c2cccc(NS(C)(=O)=O)c2O[C@H]1CN(C)S(=O)(=O)c1cccs1
-0.9 | Cc1noc(C)c1NC(=O)N(C)C[C@@H]1OCCCC[C@@H](C)Oc2ccc(N(C)C)cc2C(=O)N([C@@H](C)CO)C[C@@H]1C
-1.3 | C[C@@H]1CCCCO[C@H](CN(C)Cc2ccccc2)[C@@H](C)CN([C@@H](C)CO)C(=O)c2cc(NC(=O)Nc3ccc4c(c3)OCO4)ccc2O1

The list continues.
Ran importin | SMILES
-5.3 | C[C@@H]1CCCCO[C@H](CN(C)C(=O)CCC(F)(F)F)[C@@H](C)CN([C@H](C)CO)C(=O)c2cc(NC(=O)Nc3ccc4c(c3)OCO4)ccc2O1
-1.2 | C[C@H](CO)N1C[C@H](C)[C@H](CN(C)C(=O)NC2CCCCC2)Oc2c(NS(=O)(=O)c3cccs3)cccc2C1=O
-1.4 | Cc1noc(C)c1NC(=O)N(C)C[C@H]1Oc2ccc(NS(C)(=O)=O)cc2CC(=O)N([C@@H](C)CO)C[C@H]1C
5.3 | C[C@@H]1CCCCO[C@H](CN(C)C(=O)Cc2ccccc2)[C@H](C)CN([C@@H](C)CO)C(=O)c2cc(NC(=O)Nc3ccc(F)cc3)ccc2O1
? | C[C@H]1CN([C@@H](C)CO)C(=O)CCCn2nncc2CO[C@H]1CN(C)C(=O)Nc1ccccc1C(F)(F)F
1.2 | CNC[C@H]1Oc2ccc(NS(=O)(=O)c3ccccc3)cc2CC(=O)N([C@@H](C)CO)C[C@H]1C
4.9 | CC(C)NC(=O)N(C)C[C@@H]1OCCCC[C@@H](C)Oc2ccc(NC(=O)Nc3ccc4c(c3)OCO4)cc2C(=O)N([C@@H](C)CO)C[C@@H]1C
0.5 | Cc1noc(C)c1NC(=O)N(C)C[C@@H]1Oc2ccc(NC(=O)Nc3ccc4c(c3)OCO4)cc2C(=O)N([C@@H](C)CO)C[C@H]1C
-4.3 | Cc1noc(C)c1NC(=O)N(C)C[C@H]1Oc2ccc(NC(=O)c3ccncc3)cc2CC(=O)N([C@@H](C)CO)C[C@@H]1C
-3.9 | Cc1noc(C)c1NC(=O)N(C)C[C@@H]1OCCCC[C@@H](C)Oc2ccc(NC(=O)c3ccncc3)cc2C(=O)N([C@H](C)CO)C[C@H]1C
-2.6 | C[C@@H]1CN([C@@H](C)CO)C(=O)c2cccc(NC(=O)c3nc4ccccc4s3)c2O[C@H]1CN(C)C(=O)Nc1cccc2ccccc12
? | Cc1noc(C)c1S(=O)(=O)Nc1ccc2c(c1)C(=O)N([C@H](C)CO)C[C@H](C)[C@H](CN(C)C(=O)CCC(F)(F)F)OCCCC[C@H](C)O2
? | C[C@@H]1CN([C@@H](C)CO)C(=O)c2cc(NS(=O)(=O)c3cn(C)cn3)ccc2O[C@@H]1CN(C)C(=O)NC1CCCCC1

Not all compounds are listed; count on the stated rates, not on these rows.
